Mtb H37Rv = M. tuberculosis H37Rv growth inhibitors, H37Rv strain (AID 1626). M. tuberculosis H37Rv growth inhibition; higher % means a stronger effect. actives 0.95% (n = 220,000). one-dose inhibition, % at 10 µM; IC50 in µM for titrated hits;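 active means confirmed in a dose series; inconclusive means inhibition above 80% but not taken into the dose series; inactive means below 80% or under 30% at every dose of the series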;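 further: bacteria incubated seven days before Alamar blue readout; 0% = bacteria only wells and 100% = bacteria with antibiotic wells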
YopH PTP inh = blocks Yersinia enterocolitica YopH tyrosine phosphatase; actives 0.16% (n = 140,000); AID 898; fluorescence Ex485/Em525; inhibition, %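 (about 10 µM by stock and volumes)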;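 active means inhibition of 50% or more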;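 further: controls were vehicle for no effect and minimum signal wells for full effect; inactives centre near -20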
Mtb bLac sens = beta-lactam sensitization of Mtb H37Rv; inhibition, % at 25 µM; AID 434955; M. tuberculosis H37Rv growth with meropenem, percent inhibition; hits of this screen are not shown here; actives 0.27% (n = 330,000);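 active means about 74% or more and at least 40 points above the plate without the antibiotic, then above 30% in a dose series; inconclusive means first-round hits that could not be retested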;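 further: growth measured after seven days incubation then overnight dye step; 0% = bacteria only wells and 100% = bacteria with antibiotic; twin plates without the antibiotic show which effects depend on it; some results filed as inactive read as strong as hits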
RecA splice inh = blocks M. tuberculosis RecA intein splicing; cell-free RecA intein splicing, fluorescence; inhibition, %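 (about 9 µM by stock and volumes)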; actives 0.75% (n = 290,000); in the data active means inhibition above about 30%; inconclusive means no clear call, values can overlap the other calls;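 further: 0% = vehicle wells and 100% = reference inhibitor control wells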
Target sequence (P9WHJ3 whole entry, looked up, canonical isoform): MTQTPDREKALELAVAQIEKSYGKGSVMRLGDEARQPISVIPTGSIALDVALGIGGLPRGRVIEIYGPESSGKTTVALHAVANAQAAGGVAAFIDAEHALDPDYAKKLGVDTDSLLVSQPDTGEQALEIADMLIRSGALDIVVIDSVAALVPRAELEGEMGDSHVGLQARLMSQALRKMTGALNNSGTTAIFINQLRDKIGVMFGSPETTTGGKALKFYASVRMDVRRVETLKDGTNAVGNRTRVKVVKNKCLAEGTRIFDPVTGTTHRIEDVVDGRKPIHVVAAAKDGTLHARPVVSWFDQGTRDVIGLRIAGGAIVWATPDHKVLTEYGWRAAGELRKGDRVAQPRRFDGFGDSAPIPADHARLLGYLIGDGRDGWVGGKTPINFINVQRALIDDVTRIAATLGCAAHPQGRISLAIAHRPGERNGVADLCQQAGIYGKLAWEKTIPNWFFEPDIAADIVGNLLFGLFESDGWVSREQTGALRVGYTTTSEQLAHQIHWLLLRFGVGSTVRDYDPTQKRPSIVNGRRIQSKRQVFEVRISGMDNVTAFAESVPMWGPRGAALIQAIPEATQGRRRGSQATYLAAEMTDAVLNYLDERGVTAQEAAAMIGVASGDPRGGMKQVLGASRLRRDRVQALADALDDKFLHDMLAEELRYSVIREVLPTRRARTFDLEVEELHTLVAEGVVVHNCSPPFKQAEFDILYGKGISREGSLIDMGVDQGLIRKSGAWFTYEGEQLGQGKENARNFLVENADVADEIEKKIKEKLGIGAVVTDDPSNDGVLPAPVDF
Arbovirus inh = arbovirus infection inhibition. arbovirus infection cell-based antiviral screen. inhibition, % at 10 µM. AID 1251. actives 0.37% (n = 200,000);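 active means inhibition from about 30%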;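 further: bluetongue infection of BSR cells; cell survival read as ATP light after 72 h; 0% = infected wells without compound and 100% = uninfected wells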
Arbovirus inh repeat = recorded beside Arbovirus inh, whose call it bears; inhibition, %; measured here: 10K subset replicate screen; many hits read low in the repeat;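 first of two repeat runs on a subset; 0% = infected and 100% = uninfected wells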
The depositor's hits bear a star; ? = inconclusive; . = no result given. Not all compounds are listed, so the mix of outcomes need not match the whole.

Sample of the layout, 17 compounds:
SMILES	Mtb H37Rv	YopH PTP inh	Mtb bLac sens	RecA splice inh	Arbovirus inh	others
CCCCc1nc(NCCN2CCOCC2)c(C#N)c2c1COC(C)(C)C2	-9%	-31	0	1.1	-3
COc1cc(-c2n[nH]c(=S)n2-c2cccc(C(F)(F)F)c2)cc(OC)c1OC	2%	-33	-7	-1.6	-1
CCN1CCN(/C=N/c2nc3c(s2)CCCC3)CC1	0%	-3	2	0.9	1
CS(=O)(=O)N(CC(=O)N1CCc2ccccc2C1)Cc1ccc(Cl)cc1	-3%	-13	70	0.1	-6
CC(=NCc1cccc(Cl)c1)c1nc(-c2ccco2)oc1O	8%	-19	7	-1.0	-40
Cc1nc2ccc(NC(=O)N3CCSCC3)cc2s1	-15%	7	10	-1.9	-2
O=[N+]([O-])c1ccc(COc2cccc(CNc3ccc(Br)cc3)c2)cc1	21%	-37	78	-1.4	4
COc1ccc(CCN(C)C(=O)CN2C(=O)c3ccccc3S2(=O)=O)cc1OC	-13%	-48	-2	0.3	5
CCOC(=O)N1CCC(NC(=O)CS(=O)(=O)Cc2nc(-c3cccc(OC)c3)oc2C)CC1	1%	-6	-8	0.5	7
CCn1nc(C)c(NC(=O)c2cc(Br)ccc2Cl)c1C	-9%	-25	?	2.4	-6
c1ccc2c(c1)ncn2CCC1CCCCC1	1%	-2	6	.	10
Cc1ccc(C2CC2c2n[nH]c(=S)n2-c2cccc(Cl)c2)cc1 (configuration not stated)	4%	-19	2	5.1	5
Cn1c(CNC(=O)CNC(=O)Cc2ccc(F)cc2)cc(=O)n(C)c1=O	.	.	5	0.2	.
COc1ccc(C(=O)NC(C(=O)NCc2ccccc2OC)C(C)C)cc1 (configuration not stated)	6%	.	0	1.4	-3
CCOC(=O)Cc1csc(NC(=O)c2ccc(C)cc2)n1	-2%	.	-7	-1.2	-5
COc1cc(/C=N/NC(=O)c2cccnc2)cc(Br)c1O	.	.	4	-1.7	.
COc1cc(NC(=S)Nc2ccccn2)c(OC)cc1Cl	2%	.	2	1.4	-8

Main list, from the first entry:
SMILES	Mtb H37Rv	YopH PTP inh	Mtb bLac sens	RecA splice inh	Arbovirus inh	others
CCCCc1nc(NCCN2CCOCC2)c(C#N)c2c1COC(C)(C)C2	-9%	-31	0	1.1	-3
COc1cc(-c2n[nH]c(=S)n2-c2cccc(C(F)(F)F)c2)cc(OC)c1OC	2%	-33	-7	-1.6	-1
CCN1CCN(/C=N/c2nc3c(s2)CCCC3)CC1	0%	-3	2	0.9	1
CS(=O)(=O)N(CC(=O)N1CCc2ccccc2C1)Cc1ccc(Cl)cc1	-3%	-13	70	0.1	-6
CC(=NCc1cccc(Cl)c1)c1nc(-c2ccco2)oc1O	8%	-19	7	-1.0	-40
Cc1nc2ccc(NC(=O)N3CCSCC3)cc2s1	-15%	7	10	-1.9	-2
O=[N+]([O-])c1ccc(COc2cccc(CNc3ccc(Br)cc3)c2)cc1	21%	-37	78	-1.4	4
COc1ccc(CCN(C)C(=O)CN2C(=O)c3ccccc3S2(=O)=O)cc1OC	-13%	-48	-2	0.3	5
CCOC(=O)N1CCC(NC(=O)CS(=O)(=O)Cc2nc(-c3cccc(OC)c3)oc2C)CC1	1%	-6	-8	0.5	7
CCn1nc(C)c(NC(=O)c2cc(Br)ccc2Cl)c1C	-9%	-25	?	2.4	-6
c1ccc2c(c1)ncn2CCC1CCCCC1	1%	-2	6	.	10
Cc1ccc(C2CC2c2n[nH]c(=S)n2-c2cccc(Cl)c2)cc1 (configuration not stated)	4%	-19	2	5.1	5
Cn1c(CNC(=O)CNC(=O)Cc2ccc(F)cc2)cc(=O)n(C)c1=O	.	.	5	0.2	.
COc1ccc(C(=O)NC(C(=O)NCc2ccccc2OC)C(C)C)cc1 (configuration not stated)	6%	.	0	1.4	-3
CCOC(=O)Cc1csc(NC(=O)c2ccc(C)cc2)n1	-2%	.	-7	-1.2	-5
COc1cc(/C=N/NC(=O)c2cccnc2)cc(Br)c1O	.	.	4	-1.7	.
COc1cc(NC(=S)Nc2ccccn2)c(OC)cc1Cl	2%	.	2	1.4	-8
Cc1cc(C)cc(NC(=O)c2ccc3c(c2)CCN3S(C)(=O)=O)c1	.	.	5	1.1	.
COC(=O)C1=C(C)N(Cc2ccccc2)C(=NCCc2cccnc2)N[C@H]1c1ccccc1	.	.	-7	2.6	.
COC(=O)C1(C)NCCc2c1[nH]c1ccccc21 (configuration not stated)	.	.	-2	-0.3	.
CCN(CC)c1c2c(c(C#N)c3nc4ccccc4n13)CCC2	-1%	-5	2	-11	-6
CC[C@@]12C(=O)N(c3ccc(C)cc3)C(=O)N1[C@H](c1cccc(C)c1)[C@@H]1C(=O)N(Cc3ccccc3)C(=O)[C@@H]12	.	.	-6	2.2	.
CCOc1ccc(S(=O)(=O)NCCC(=O)N2CCC(Cc3ccccc3)CC2)cc1	.	.	51	1.7	.
COc1cc(C(Nc2ccccn2)c2ccc3ccc(C)nc3c2O)cc(OC)c1O (configuration not stated)	1%	-22	?	7.6	-48
CCN(CC)CCN1C(=O)C(=O)/C(=C(/O)c2ccc(C)cc2)C1c1cccnc1 (configuration not stated)	-7%	.	-1	-0.3	.
(continued)
SMILES	Mtb H37Rv	YopH PTP inh	Mtb bLac sens	RecA splice inh	Arbovirus inh	others
CC1CCN(C(=O)c2cccc(NC(=O)c3cccs3)c2)CC1	.	.	2	-0.7	.
CC1CCc2c(nc3ncnn3c2N2CCN(c3ccccc3F)CC2)C1 (configuration not stated)	-10%	.	-5	2.8	.
Fc1ccc(Cn2nnnc2CN2CCN(C3CCCCC3)CC2)cc1	0%	-2	-6	.	-10
CSc1cccc(NC(=O)CCNC(=O)c2ccco2)c1	75%	.	44	-0.3	-3
O=c1c2ccccc2nc(/C=C\c2ccccc2[N+](=O)[O-])n1-c1ccccc1O	5%	.	-7	12	.
CCNC(=O)c1ccccc1-c1nc(-c2ccccc2OC)no1	-7%	.	0	4.4	.
O=C(N/C(=C/c1ccc(Br)cc1)c1nc2ccccc2[nH]1)c1ccco1	-5%	-40	7	-0.4	1
CCN(CC)S(=O)(=O)c1ccc(OC)c(NC(=O)OCc2ccccc2)c1	.	.	1	-2.0	.
CCCCCCn1c(N2CCCC2)nc2c1c(=O)[nH]c(=O)n2C	.	.	-4	0.5	.
Nc1nc(-c2cccc(NS(=O)(=O)c3ccccc3)c2)cs1	7%	4	6	2.8	12
CCc1nnc(NCC(=O)N2CCc3ccccc32)s1	-26%	-3	-1	-2.4	4
CC1CCCCC1NC(=O)Cn1ncc2ccccc21 (configuration not stated)	2%	-30	-1	.	4	Arbovirus inh repeat=0
Cc1ccccc1S(=O)(=O)N(CC(O)CN1CCCCC1)c1ccccc1 (configuration not stated)	.	.	3	-0.2	.
COc1ccccc1NC(=S)NCCc1ccc(S(N)(=O)=O)cc1	0%	.	7	0.1	5
COc1ccccc1C(=O)Nc1ccccc1N1CCN(C(=O)c2ccc(Cl)cc2)CC1	.	.	44	13	.
O=C(Nc1cc(C(F)(F)F)ccc1Cl)C(Sc1n[nH]c(=O)[nH]c1=O)c1ccccc1 (configuration not stated)	-5%	.	-3	4.2	.
Cc1ccnc2nc(C(=O)Nc3nc4ccccc4s3)nn12	23%	.	92	-0.1	.
CC1CN(c2ccc([N+](=O)[O-])cc2Cl)CCN1 (configuration not stated)	0%	.	-6	-0.8	-18
COc1cc(C2CC(=O)Oc3c2c(=O)n(C)c2ccccc32)cc(OC)c1OC (configuration not stated)	-5%	.	-7	-7.0	22
CC[N+]12CCC(CC1)C(=C(c1ccccc1)c1ccccc1)C2	-3%	-20	5	-2.1	6
O=C(CC(C(=O)N1CCc2ccccc21)n1ccnc1)N1CCc2ccccc2C1 (configuration not stated)	.	-14	-16	3.6	7
CC(=O)c1ccc(S(=O)(=O)N2CCC(c3nnc(SCCN4CCCC4)n3C)CC2)cc1	.	.	-2	-2.9	.
O=C(Nc1cccc(C(F)(F)F)c1)Nc1ccon1	.	.	4	-1.3	.
O=C(NCCCC1CCCC1)C1CCC(=O)N(Cc2ccccc2F)C1 (configuration not stated)	.	.	-5	9.3	.
CN(C)/C=N/c1nc(-c2ccc3c(c2)OCO3)cs1	-12%	.	-2	-0.8	-7
Other compounds follow.
SMILES	Mtb H37Rv	YopH PTP inh	Mtb bLac sens	RecA splice inh	Arbovirus inh	others
Cc1ccc(C2=NN(CC(=O)NCCN(CC(C)C)CC(C)C)C(=O)CC2)cc1	.	.	2	1.4	.
NS(=O)(=O)c1cc(C(=O)OCC(=O)c2ccc3c(c2)OCCO3)ccc1Cl	3%	.	0	0.3	-8
O=C(NCc1ccccn1)c1ccc(OC2CCN(Cc3ccc(CO)o3)CC2)cc1	.	.	-18	-3.8	.
CC(=O)c1c(C)[nH]c(C(=O)NCCN2CCC(C)CC2)c1C	-5%	-37	-5	0.4	-11
Cc1ccc(S(=O)(=O)N(C)C)cc1NC(=O)COC(=O)C1CCCC1	.	.	-9	1.3	.
CCc1ccc(OCc2ccc(C(=O)NCc3ccccn3)o2)cc1	7%	-21	-9	0.9	-6
CC(C)CC(C(=O)NC(C)(C)C)N(Cc1cccs1)C(=O)c1snc(C(N)=O)c1N (configuration not stated)	6%	.	7	-4.0	-14
C=CCn1c(SCC)nc2sc3c(c2c1=O)CCc1ccccc1-3	11%	-31	71	7.4	1
O=C(Nc1ccccn1)c1csc2c1CCCC2	-4%	.	7	0.2	-4
Cc1cc(NC(=O)c2c(-c3c(F)cccc3Cl)noc2C)no1	8%	.	2	1.3	.
COc1ccc(O)c(/C=N/NC(=O)c2c(C)nnn2-c2nonc2N)c1	2%	.	6	-2.3	-20
CC(NC(=O)/C(=C/c1cccc([N+](=O)[O-])c1)NC(=O)c1ccco1)C(=O)O (configuration not stated)	-2%	-11	-10	-0.9	7
CCCn1c(N)c(N(CCOC)C(=O)c2ccc(F)cc2F)c(=O)[nH]c1=O	.	.	-4	0.6	.
COc1cc(C(=O)OCC(=O)N2CCCCC2C)ccc1OCc1c(C)noc1C (configuration not stated)	3%	.	-5	1.1	-1
Cc1ccc(NC(=O)c2ccc(S(=O)(=O)N3CCCCCC3)cc2)nc1	.	.	-5	11	.
Cc1ccc(C(=O)N/C(=C/c2cccs2)C(=O)NCCCn2ccnc2)cc1	10%	-11	1	-0.2	8
Cc1ccc(NC(=O)CCCn2c(=S)[nH]c3ccsc3c2=O)cc1C	.	.	-7	0.1	.
C/C=C/C(O)c1ccc2ccccc2c1 (configuration not stated)	.	.	-3	0.3	.
Fc1ccc(/C=N\Nc2cccc(F)c2)cc1	.	.	-5	-4.5	.
Cc1ccc(CNC(=O)C2CCCN2C(=O)Nc2cccc(Cl)c2)cc1 (configuration not stated)	.	.	-17	0.5	.
COc1ccc(NC(=O)Nc2ccccc2F)c(C)c1	3%	.	11	-0.7	2
NC(=S)N/N=C/c1coc2ccccc2c1=O	1%	-7	4	-3.1	1
O=C(NC(=S)NCCCN1CCOCC1)c1cccc2ccccc12	-3%	.	2	-5.5	7
COc1ccc(N2CCN(C(=S)Nc3cccc(OC)c3)CC2)cc1	.	.	8	-2.5	.
O=C(CN1CCC(NC(=O)Cc2ccccc2)CC1)Nc1ccccc1Br	12%	-19	4	-1.0	0
Following part:
SMILES	Mtb H37Rv	YopH PTP inh	Mtb bLac sens	RecA splice inh	Arbovirus inh	others
CC1(C)COC(Cn2c3ccccc3c3ccccc32)O1 (configuration not stated)	-7%	.	-1	.	.
O=C(CSc1ncn(-c2ccccc2)n1)N1CCc2ccccc21	-3%	-28	-11	.	-5
O=C(c1ccccc1)N1CCC(O)(c2ccc3c(c2)OCO3)CC1	-3%	-3	-23	-0.3	7
O=C(NC(=O)c1ccccc1)OCCN1C(=O)c2ccccc2C1=O	2%	.	-1	1.1	5
O=[N+]([O-])c1ccc(Nc2ccc(Cl)cc2)nc1	-4%	.	2	7.6	5
COc1ccc2c3c(cccc13)N(C)N=C2C	.	25	6	8.9	-16
Cc1ccc(NC(=O)c2sccc2-n2cccc2)c(Cl)c1	9%	.	52	-1.6	-1
O=C1C2CCCN2C(c2cccnc2)N1c1cccc(Cl)c1 (configuration not stated)	-5%	-19	-1	-0.5	-4
COc1cccc(-c2nnn(CCC(=O)O)n2)c1	-12%	-44	-6	-1.8	-2
NC(=O)c1ccc(C(=O)N/N=C(/Cc2ccccc2)c2ccccc2)cc1	.	.	-2	-0.7	.
O=C(Oc1cccc2cccnc12)c1cccs1	?	-32	100	2.1	13
C/C(=N\Nc1ncc(Cl)cc1Cl)c1ccccn1	?	.	.	-0.1	-19
O=C(CSc1nnc(COc2ccc(Cl)cc2)o1)N1CCN(c2ccccc2)CC1	3%	-4	0	-2.0	-3
O=C(NCc1ccc2c(c1)OCO2)c1ccc(CSCc2ccc(Cl)cc2)o1	4%	-32	11	-2.8	-11

Screening data deposited in PubChem BioAssay by several laboratories.
